Screens from PubChem.
eIF4H FP inh – inhibitors of RNA binding by human eIF4H | Q15056 | eIF4H fluorescence polarization binding assay | inhibition, % at 35 µM | 0.94% of 290,000 active;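 active = 50% or more with normal probe brightness, or confirmed in later tests; inconclusive = above 50% with abnormal brightness, or retests that disagree; inactive = below 50% or failed in later tests; about a fifth of its hits are not listed in these tables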;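 note: calls also rest on retests at 20 µM and on dose response follow-up; 0% = protein and probe with vehicle and 100% = probe without protein; strong numbers were not always called active; many hits fall short of the cut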
Rce1 inhib – blocks yeast Ras-converting enzyme; yeast membranes, quenched prenylated peptide cleavage fluorescence; calls only; AID 2563; 0.27% of 290,000 active;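 active = fall in fluorescence gain of 50% or more versus controls, with final raw signal at or below 3038400; inconclusive = same 50% fall but final raw signal above 3038400; inactive = fall in fluorescence gain under 50%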;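 note: plate controls were neutral control wells for no effect and wells lacking membranes for full effect; tested at 10 µM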
Target sequence (Q03530 whole entry, looked up): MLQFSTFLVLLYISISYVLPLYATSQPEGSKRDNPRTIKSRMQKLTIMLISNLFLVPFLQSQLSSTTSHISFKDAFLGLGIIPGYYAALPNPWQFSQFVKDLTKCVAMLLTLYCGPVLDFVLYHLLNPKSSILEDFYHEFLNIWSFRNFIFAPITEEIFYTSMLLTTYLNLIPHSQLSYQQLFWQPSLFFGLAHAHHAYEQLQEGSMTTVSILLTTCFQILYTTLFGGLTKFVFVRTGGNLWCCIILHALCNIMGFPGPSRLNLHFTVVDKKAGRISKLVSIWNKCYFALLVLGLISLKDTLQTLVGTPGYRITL
CSC inhib – blocks cancer stem cells | cancer stem cell-like cells viability, luminescence | inhibition, % at 7.5 µM | 1.1% of 300,000 active;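 active = mean at 75% or more and at least half the replicates too; inconclusive = mean and replicates disagree; tested in HMLE shEcad cells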;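 note: 0% = median of negative and 100% = median of positive control wells; the first replicate is given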
UUG fidelity – modulators of start codon recognition fidelity in yeast. S. cerevisiae UUG-firefly luciferase reporter, luminescence/redox ratio. activity score, % at 18.7 µM. 0.13% of 350,000 active. AID 602363;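 active = replicate mean at a twofold rise or more, about +100% in these data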;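 note: firefly luciferase made from a UUG start codon reports start codon fidelity; reporter light over untreated wells divided by growth signal over untreated wells; some hits fall short of that in this replicate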
PABP FP inh – PABP-poly(A) binding inhibition | P11940 | PABP-poly(A) RNA binding, fluorescence polarization | inhibition, % at 35 µM | 1% of 290,000 active | AID 2014;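 active = 50% or more with normal probe brightness, or confirmed in later tests; inconclusive = above 50% with abnormal brightness, or retests that disagree; inactive = below 50% or failed in later tests; about a fifth of its hits are not listed in these tables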;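 note: calls also rest on retests at 20 µM and on dose response follow-up; controls were probe without protein and protein plus probe with vehicle; some compounds called inactive have numbers as strong as hits; many hits fall short of the cut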
MT1-MMP act inh – inhibitors of human MT1-MMP activation; HT1080 RFP-PRO-GFP cells, GFP/RFP ratio fluorescence, overnight; percent of plate control window, DMSO zero; GFP/RFP ratio change, % at 20 µM; 0.061% of 360,000 active; AID 651647;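 active = GFP/RFP ratio change of at least 30% with cell ATP level not reduced by more than half and red fluorescence within 50% of control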; note: strong numbers were not always called active
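system = RFP-PRO-GFP reporter HT1080 cells | dosing = 20 µM single dose, 1% DMSO | timing = overnight cell settling, then overnight compound exposure, 37 °C, 5% CO2 | read-out basis = GFP/RFP fluorescence ratio | controls = DMSO and RFP-L50D-GFP cell wells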
HIV Env fusion – inhibitors of HIV Env-mediated cell fusion. HeLa-JRFL Env/CEM21 cell fusion, luciferase. inhibition, % at 12.3 µM. 1.1% of 360,000 active;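 active = mean replicate inhibition score of at least 50 and every replicate individually at or above 50; inconclusive = only one of the two criteria met; inactive = mean below 50 and not all replicates reaching 50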;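 note: 0% = plate neutral controls and 100% = maraviroc near 300 nM; one replicate is shown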
eIF4H FP inh retest – further read-out of eIF4H FP inh, marked with its call; inhibition, %; compound at 20 µM; confirmation average;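 mean of two retest wells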
PABP FP inh retest – second read-out of PABP FP inh, no call of its own (marks repeat the call); inhibition, %; compound at 20 µM; confirmation repeats;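 mean of two retest wells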
MT1-MMP act inh RFP – second read-out of MT1-MMP act inh, no call of its own (marks repeat the call); RFP signal change, %; measured here: RFP expression control read;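 0 = vehicle wells; hits needed this value within 50% of zero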
* = called active by the depositor; i = inactive; u = inconclusive; x = not tested or not shown. An excerpt; the hit share may differ from the screen's.

SMILES	eIF4H FP inh	Rce1 inhib	CSC inhib	UUG fidelity	PABP FP inh	MT1-MMP act inh	MT1-MMP act inh RFP	HIV Env fusion	others
O=C(N/N=C/C(Cl)=C/c1ccccc1)c1ccccc1F	-10	i	-2	-18	4	0	-3	-29
Cc1ccc(S(=O)(=O)c2cc3ccccc3nc2N)cc1	0	i	-3	-16	5	5	-2	-3
Cc1cc(O)c(/C=N/Nc2ccccc2Cl)c(=O)o1	0	i	x	-34	11	-8	0	-13
CC(=O)c1ccc(NC(=S)NNC(=O)c2ccccc2[N+](=O)[O-])cc1	16	i	-6	-26	-7	0	4	-15
O=C(CN1C(=O)c2ccccc2S1(=O)=O)Nc1ncc([N+](=O)[O-])s1	x	i	x	-9	x	-3	3	-11
O=C(Cn1cc(C(F)(F)F)cc(Cl)c1=O)Nc1ccc(N2CCOCC2)cc1	-4	i	-2	-9	2	2	4	1
CN(Cc1c(C(=O)N/N=C/c2cc(F)ccc2F)nnn1-c1nonc1N)C1CCCCC1	-12	i	2	-13	1	3	1	3
COc1ccc(C(=O)NC(=S)Nc2ccc(CN3CCOCC3)cc2)cc1Br	-18	i	2	0	-8	6	-6	-14
CN1C2CCC1CC(NC(=O)c1ccc([N+](=O)[O-])cc1)C2 (stereo not given)	6	i	-7	-22	18	3	6	16
COc1ccc(CNC(=O)COc2ccc(F)cc2)cc1	11	i	-5	-5	5	2	6	5
COc1cc(-c2c(C#N)c(N)nc3c2CCCC3)ccc1O	6	i	0	6	1	8	0	x
O=C(Nc1cccc(C(=O)O)c1)/C(=C\c1ccccc1)NC(=O)c1cccc2ccccc12	-6	i	-4	x	7	2	2	13
Cc1ccc(S(=O)(=O)N2CCN(C(=O)[C@H](Cc3ccccc3)NC(=O)c3ccco3)CC2)cc1	x	x	x	22	x	-4	-2	-9
CCN1CCN(CCNC(=O)c2ccc3c(c2)N(Cc2ccc(F)cc2)C(=O)c2ccccc2S3=O)CC1 (stereo not given)	29	i	-7	-4	-7	1	3	8
CC1(NC(=O)CSc2nnc(-c3ccco3)n2Cc2ccccc2)CCS(=O)(=O)C1 (stereo not given)	x	x	-7	-11	x	0	2	-9
CCOC(=O)c1ccccc1NC(=O)COC(=O)C1CCCC1	x	i	4	-6	x	3	6	-5
Cc1cc(CNC(=O)c2cc(-c3ccccc3)nc3ccccc23)nn1C	8	i	-5	x	2	0	-7	-6
S=C(Nc1ccccc1)Nc1nc2ccccc2n1CCOc1ccc(Br)cc1	10	i	107*	x	26	6	6	21
CN(CCc1cn[nH]c1)C(=O)CC1C(=O)NCCN1Cc1cccc(Oc2ccccc2)c1 (stereo not given)	11	i	12	x	8	1	4	-8
C=CCn1c(O)c(CN2CCCCC2)c(C)c(C#N)c1=O	u	i	-8	x	-7	-8	3	7
CCn1cc(Cl)c(C(=O)N2N=C(c3ccc4ccccc4c3)CC2c2ccccc2O)n1 (stereo not given)	2	i	26	x	5	-20	-13	-6
Cc1ccc(NC(=S)N2CCC(N(C)CC3CCCO3)CC2)cc1 (stereo not given)	0	i	-6	-11	-3	-7	-11	-6
COc1cc(CNc2ccccc2SC)ccc1O	-3	i	6	-17	10	4	3	-10
N#Cc1cccc(NC(=O)Cn2cnc(S(=O)(=O)N3CCc4ccccc43)c2)c1	-4	i	-22	-14	4	1	-15	x
CN(CC(=O)Nc1cccc(F)c1)CC(=O)N(C)c1c(N)n(Cc2ccccc2)c(=O)[nH]c1=O	x	x	-18	-12	x	-5	2	-11
O=c1c2c3c(sc2nc(N2CCNCC2)n1CCc1ccccc1)CCCCC3	-5	i	12	-7	-16	-7	-7	-2
Cc1ccc(S(=O)(=O)NNC(=O)Nc2ccc(C)c(C)c2)c(C)c1	-9	i	-10	-7	3	1	6	2
O=C(c1c(F)cccc1F)N1CCC(O)(c2cccnc2)CC1	-9	i	1	-11	7	0	-2	x
COc1ccc(Cn2nnc3c(=O)[nH]c(C4CCN(S(=O)(=O)c5ccc(C)cc5)CC4)nc32)cc1	x	i	-3	-7	x	-3	1	-6
CC(=O)NNC(=S)NC(=O)c1ccccc1	32	i	x	x	32	4	5	12
Cc1ncc([N+](=O)[O-])n1CCOC(=O)Nc1ccc(Cl)c(Cl)c1	7	i	6	-15	-2	12	6	41
CN=C(Nc1cc(C)nn1-c1ccccc1)c1ccccc1F	3	i	-14	-14	9	-1	2	x
Cc1noc(C)c1CSCC(=O)NC1=NCCS1	5	i	-3	-20	0	-2	1	-56
Cc1ccc(N2C(=O)c3ccccc3C2=O)cc1Cl	-7	i	-2	-14	-3	-1	7	x
O=C(COC(=O)COc1cccc(Br)c1)Nc1c(Cl)cccc1Cl	-9	i	-5	x	-9	2	2	-16
C[C@H]1COC(=O)[C@@H](CC(=O)OC(C)(C)C)C/C=C\C[C@@H](CC(=O)N[C@H](CO)Cc2ccccc2)C(=O)N1	x	x	-11	9	x	1	2	-14
COc1ccc(CCNC(=O)CSc2nnc3ccccn23)cc1	-2	i	-1	x	0	3	5	8
Cc1ccc(C(=O)COC(=O)CNC(=O)c2ccc(N3C(=O)c4ccccc4C3=O)cc2)cc1C	-4	i	7	x	-3	-2	2	-17
Cc1sc(NC(=O)c2sc3nc4c(C)cccc4cc3c2N)c(C#N)c1C	32	i	x	5	35	-122	13	-75
CS(=O)(=O)c1ccc(Cl)c(NC(=O)CN2CCCC2c2ccc3c(c2)OCCCO3)c1 (stereo not given)	x	x	x	-10	x	-1	-4	61*
O=C(NCCN1CCOCC1)Nc1cccc(Cl)c1	0	i	x	-22	-4	2	4	14
O=C(CSc1ccsc1[N+](=O)[O-])Nc1cccc(F)c1	74	i	x	-14	-4	-6	-5	10	eIF4H FP inh retest=42;PABP FP inh retest=45
CCC(C)Sc1ccc([C@H]2N[C@@](Cc3ccccc3)(C(=O)OC)[C@H]3C(=O)N(CC)C(=O)[C@@H]23)cc1OC (stereo not given in full)	x	i	-39	4	x	3	-2	-51
Cc1cc(N2CCCCC2)ccc1[N+](=O)[O-]	3	i	-8	x	11	2	1	-3
CC(NC(=O)c1cnc2n(c1=O)CCS2)c1ccccc1 (stereo not given)	4	i	-5	8	-15	8	14	u
COc1ccccc1N=C1SC(C)CN1C(=O)C1CCC1 (stereo not given)	6	i	5	x	-2	x	x	x
COc1cc(/C=N/NC(=O)COc2c(C)cc([N+](=O)[O-])cc2C)ccc1OC(=O)c1ccccc1	-1	i	2	-16	-4	-4	-8	-15
Nc1nc(-c2cccnc2)nn1C(=O)c1ccccc1Cl	1	i	x	x	-4	3	5	-7
CC(=O)c1cccc(S(=O)(=O)N2CCC(C(=O)O)(c3ccccc3)CC2)c1	1	u	-3	-6	4	2	0	2
Cc1cc(C(F)(F)F)nc(SCCN2CCCCC2)c1C#N	-10	i	-2	-5	-2	-2	-1	-8
Additional records
SMILES	eIF4H FP inh	Rce1 inhib	CSC inhib	UUG fidelity	PABP FP inh	MT1-MMP act inh	MT1-MMP act inh RFP	HIV Env fusion	others
COCC(C)n1c(SCC(=O)NNC(=O)c2ccccc2)nc2ccccc2c1=O (stereo not given)	-3	i	-7	-13	-4	6	3	2
O=C(Nc1ccc(F)cc1F)c1cc(-c2ccco2)on1	-9	i	15	-7	-9	1	5	-50
Cc1cc(=O)[nH]c(SCc2nnnn2-c2ccc(Cl)cc2)n1	2	i	x	x	-4	8	9	7
Cc1ccc(CN(CC(=O)NCc2ccc3c(c2)OCO3)C(=O)c2csnn2)cc1	-3	i	-6	-15	-5	2	-2	3
CS(=O)(=O)N(CC(=O)Nc1cccc(Cl)c1)c1ccccc1Cl	46	i	-19	-1	-2	1	-3	6
COc1ccc(/C=C/C(=O)OCC(=O)Nc2c(C)cccc2C)cc1	0	i	x	x	-20	-2	2	16
O=C(Nc1ccccc1)c1cc(C2COCCN2C(=O)CCCc2ccccc2)on1 (stereo not given)	x	x	x	4	x	5	4	13
CC(OC(=O)[C@H](C)NC(=O)c1ccccc1Cl)C(=O)NCc1ccc2c(c1)OCO2 (stereo not given in full)	x	i	-5	x	x	8	0	-19
NC(=O)c1cc([N+](=O)[O-])c(Cl)cc1NCc1ccccn1	x	x	1	-19	x	3	-3	14
Cn1nc(C(=O)OCC(=O)Nc2sccc2C(N)=O)c2ccccc2c1=O	-4	i	-6	x	7	2	1	-13
CCC(Sc1nncn1C)C(=O)Nc1nnc(-c2ccccc2Cl)s1 (stereo not given)	-4	i	-16	-12	4	1	3	x
COc1ccc(C2N(c3ccccc3)C(=O)C2(F)F)cc1OC (stereo not given)	-3	i	-8	-10	-8	0	1	-11
C=CCOc1c(OC)cc(Cl)cc1C1NC(=O)NC(C)=C1C(C)=O (stereo not given)	-5	i	0	1	-17	-7	-3	x
Cc1sc2ncnc(NCC(c3ccco3)N(C)C)c2c1C (stereo not given)	x	i	-16	-9	x	0	3	-45
CCOCC(=O)Nc1cc([N+](=O)[O-])ccc1OC	1	i	-8	-12	-4	4	3	4
CC(C)(NC(=O)NC(CO)c1ccccc1)c1cccc(C(C)(C)NC(=O)NC(CO)c2ccccc2)c1 (stereo not given)	x	i	-7	1	x	2	7	-175
O=C(Nc1cccc(S(=O)(=O)N2CCCCC2)c1)C1CCN(C(=O)c2ccc(Cl)cc2)CC1	x	x	-11	11	x	-2	-18	0
O=C(CCN1C(=O)C2CC=CCC2C1=O)Nc1ccccc1Cl (stereo not given)	-1	i	-17	-7	-12	-2	6	8
CN(C(=O)COC(=O)c1c[nH]c(=O)[nH]c1=O)C1CCCCC1	6	i	0	-19	-2	0	3	-10
CCCSc1nc2cc(C)c(C)cc2n1CC(O)CO (stereo not given)	-6	i	-4	x	10	2	5	-4
COc1cccc(C(=O)Nc2ccc3c(c2)n(C)c(=O)n3C)c1	-4	i	-17	-11	-9	5	5	-22
O=c1[nH]c(=O)n(Cc2ccccc2)c2nc(-c3ccc(C(F)(F)F)cc3)n(CCO)c12	3	i	6	-8	-2	2	-1	-9
O=c1oc2ccccc2c2c1ncn2CCN1CCOCC1	8	i	-10	-21	2	3	-2	7
Cc1cccc(CN2C(=O)/C(=C\c3ccc(C(=O)NCCCN4CCN(C)CC4)cc3)Oc3ccccc32)c1	-27	i	105*	19	-10	-2	-6	24
Cc1cc(=O)oc2c(CN3CCCC3)c(O)ccc12	-7	u	-6	-10	3	-1	1	-9
N/C(=N\OC(=O)CCCCCN1C(=O)c2ccccc2C1=O)c1ccccc1	-9	x	19	-20	3	1	1	-29
COc1ccc(/C=N/NC(=S)NC2CCS(=O)(=O)C2)cc1 (stereo not given)	2	i	4	-10	6	-1	-1	-7
C=CC[N+](C)(C)c1ccc(CCC(=O)CCc2ccc([N+](C)(C)CC=C)cc2)cc1	x	x	x	5	x	3	2	13
O=C(NCc1cccs1)C1CCC(=O)N1C1CCCCC1 (stereo not given)	-6	i	-10	-16	-1	2	3	-3

4 structures out of the list, ordered by heavy-atom count, rising.
SMILES	eIF4H FP inh	Rce1 inhib	CSC inhib	UUG fidelity	PABP FP inh	MT1-MMP act inh	MT1-MMP act inh RFP	HIV Env fusion	others
O=C(NCc1cccs1)C1CCC(=O)N1C1CCCCC1 (stereo not given)	-6	i	-10	-16	-1	2	3	-3
N/C(=N\OC(=O)CCCCCN1C(=O)c2ccccc2C1=O)c1ccccc1	-9	x	19	-20	3	1	1	-29
C=CC[N+](C)(C)c1ccc(CCC(=O)CCc2ccc([N+](C)(C)CC=C)cc2)cc1	x	x	x	5	x	3	2	13
Cc1cccc(CN2C(=O)/C(=C\c3ccc(C(=O)NCCCN4CCN(C)CC4)cc3)Oc3ccccc32)c1	-27	i	105*	19	-10	-2	-6	24
